High-throughput results: PubChem BioAssay, National Center for Advancing Translational Sciences (NCATS)
MARV entry inh: Marburg virus entry inhibition; Marburg virus pseudotyped entry inhibition, cell reporter; control for the full effect not named in the record; about a third of the inactives were read at about 46 µM; Potency, µM (top dose mostly 37.8 µM), for the others: at the top dose activity change, negative = inhibition, usual class: inhibitors; 1.8% of 300,000 active; active = well fitted inhibition curve with a large enough effect; inconclusive = small, poorly fitted or top-dose-only effect, or effect the other way; inactive = flat fitted curve, though single readings scatter; tested in HEK293 cells; about a fifth of its hits are not listed in these tables; also: % is scaled to controls: 0 for no effect and ±100 for the full control effect; luciferase read-out
StopGo reporter: FMDV 2A StopGo reporter, luciferase signal; Potency, µM (series often up to 57.9 µM), for the others: at the top dose signal change, negative = less light; human cells with a luciferase reporter of 2A StopGo recoding; control for the full effect not named in the record; 1.2% of 410,000 active; AID 1159524; active = well fitted falling curve with a large enough effect; inconclusive = small, poorly fitted or top-dose-only effect; inactive = no such curve, though single readings can be large or run the other way; tested in HEK293T cells; also: % is scaled to controls: 0 for no effect and ±100 for the full control effect; nearly all actives have a fitted effect of over 45% in size; luciferase light after 4 h
Cruzain Triton: inhibitors of Trypanosoma cruzi cruzain with detergent; P25779; 0.43% of 200,000 active; Potency, µM, without a hit: max response, negative = inhibition, usual class: inhibitors; purified cruzain, Z-FR-AMC fluorescence, 0.01% Triton; AID 1478; active = well fitted curve in the direction sought with a large enough effect; inconclusive = small, poorly fitted or top-dose-only effect, or another doubt; inactive = no such curve, though single readings can be large; an effect the other way counts as inactive or inconclusive;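 also: plate controls were neutral wells for no effect and buffer without enzyme for full effect; nearly all actives have a fitted effect of over 40% in size; top concentration of the series not given in the record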
Target sequence (P25779 123-467 limits assumed): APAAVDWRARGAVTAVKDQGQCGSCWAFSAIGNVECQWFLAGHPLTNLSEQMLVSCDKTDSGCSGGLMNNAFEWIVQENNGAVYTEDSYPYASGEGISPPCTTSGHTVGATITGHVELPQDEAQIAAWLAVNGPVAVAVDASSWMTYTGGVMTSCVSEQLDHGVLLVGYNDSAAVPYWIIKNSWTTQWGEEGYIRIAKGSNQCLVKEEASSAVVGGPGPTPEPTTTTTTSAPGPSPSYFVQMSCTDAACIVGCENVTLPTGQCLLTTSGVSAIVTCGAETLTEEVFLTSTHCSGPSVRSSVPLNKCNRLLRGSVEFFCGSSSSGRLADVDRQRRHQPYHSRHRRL
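Detergent-containing run (0.01% Triton X-100) in acetate buffer pH 5.5 with 5 mM DTT: enzyme at 1.5 nM final, 15 min compound preincubation at room temperature, then 2 uM Z-FR-AMC substrate. Activity taken as 60 s fluorescence increase at 360/450 nm.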
RE007 growth inh: less growth of the S. pombe RE007 Vpr strain. S. pombe RE007 Vpr strain, BacTiter-Glo ATP luminescence, 24 h; control for the full effect not named in the record. Potency, µM (doses to about 92.2 µM), inactives show top-dose activity change, negative = less growth. 0.21% of 360,000 active. AID 651644; active = well fitted falling curve with a large enough effect; inconclusive = small, poorly fitted or top-dose-only effect; inactive = no such curve, though single readings can be large or run the other way;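 also: % is scaled to controls: 0 for no effect and ±100 for the full control effect; nearly all actives have a fitted effect of over 50% in size; the assay follows cell death caused by Vpr and the record does not say whether a fall means rescue or toxicity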
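Fission yeast RE007 carrying one integrated HIV-1 vpr copy, seeded at OD 0.01 in PMG+AL medium with 23 nL pinned compound. Grown 24 h at 30 degrees; viability read by BacTiter-Glo luminescence after 5 min.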
Cruzain noTriton: inhibitors of Trypanosoma cruzi cruzain without detergent; P25779; purified cruzain, Z-FR-AMC fluorescence, no detergent; Potency, µM, without a hit: max response, negative = inhibition, usual class: inhibitors; 2.3% of 200,000 active; AID 1476; active = well fitted curve in the direction sought with a large enough effect; inconclusive = small, poorly fitted or top-dose-only effect, or another doubt; inactive = no such curve, though single readings can be large; an effect the other way counts as inactive or inconclusive;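 also: plate controls were enzyme without inhibitor for no effect and buffer without enzyme for full effect; nearly all actives have a fitted effect of over 40% in size; top concentration of the series not given in the record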
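Detergent-free condition (0.00005% Triton X-100) in acetate buffer pH 5.5 with DTT. 1.5 nM enzyme and compound were pre-mixed 15 min, then 2 uM Z-FR-AMC substrate added; reaction progress from fluorescence change between first and third reads (60 s).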
Lassa entry inh: inhibitors of Lassa virus binding or cell entry; 1.2% of 300,000 active; Lassa virus pseudotype entry inhibition, cell reporter; control for the full effect not named in the record; Potency, µM (titrated, usually from 37.9 µM), without a hit: at the top dose activity change, negative = inhibition, actives largely listed as inhibitors; active means well fitted inhibition curve with a large enough effect; inconclusive means small, poorly fitted or top-dose-only effect, or effect the other way; inactive means flat fitted curve, though single readings scatter; tested in HEK293 cells; also: % is scaled to controls: 0 for no effect and ±100 for the full control effect; nearly all actives have a fitted effect of over 50% in size; luciferase read-out
NS1 function inh: blocks influenza NS1 protein function; S. cerevisiae slowed by influenza A NS1, growth recovery by OD600; Potency, µM (series often up to 46.1 µM), for inactives: top-dose activity, positive = more growth; 0.4% of 270,000 active; also: actives are rising curves; nearly all actives have a fitted effect of over 50% in size
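In this qHTS, NS1 from influenza A is expressed in budding yeast, where it slows growth. Cells are switched from glucose to 2% galactose medium (pH 6.0, -URA), treated with compound, and growth recovery is read at OD600.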
SARS PLP yeast: blocks SARS-CoV papain-like protease in a yeast assay; S. cerevisiae expressing SARS-CoV PLpro, growth rescue; control for the full effect not named in the record; Potency, µM (titrated, usually from 32.9 µM), inactives show at the highest dose activity, positive = growth rescue; AID 485353; 0.19% of 330,000 active; also: 0% is about no effect; nearly all actives have a fitted effect of over 55% in size; growth read by luminescence after 48 h
An asterisk follows results filed as active; ? = inconclusive; . = not tested or not shown; & = joins results of further samples; [ ] = dose if it differs, or a comment. Unless noted, calls follow the shape of the dose curve; as a rule, active means well fitted rising curve with a large enough effect; inconclusive means small, poorly fitted or top-dose-only effect; inactive means no such curve, though single readings can be large or run the other way. Potency is read from the fitted curve at half-maximal effect.

SMILES | MARV entry inh | StopGo reporter | Cruzain Triton | RE007 growth inh | Cruzain noTriton | Lassa entry inh | NS1 function inh | SARS PLP yeast
C=CCOC(=O)C1=C[C@H](C2CC2)[C@@H](CCCO)[C@H](OCC)O1 | . | 9% | . | 0% | . | . | 3% | 0%
Cc1n[nH]c(=O)c2c(NC(=O)CSc3ncccn3)oc(C)c12 | 22% | -15% | . | 71% | . | ? | . | 3%
CC(Oc1ccc(Cl)cc1Cl)C(=O)Nc1ccc(O)cc1 (stereo unspecified) | -6%[46.1 µM] | -14% | . | -2% | . | 0% | . | -2%
O=C(NCCCN1CCN(c2ccccc2F)CC1)C1CC(=O)N(C2CCCC2)C1 (stereo unspecified) | . | -14% | 7.8% | -1% | 0% | . | 5% | -4%
Cc1ccc(NC(=O)CN(c2ccccc2)S(=O)(=O)N(C)C)cc1 | -1% | 0% | -2.4% | -4% | -3% | 12% | 4% | 16%
CC(c1ccco1)N(C(=O)CSc1ccc(Br)cc1)c1ccccn1 (stereo unspecified) | ? | 0% | -3.2% | -20% | -4% | -23% | -7% | -4%
CC1(C)CC(NC(=O)c2ccccc2C(=O)NC2CC(C)(C)NC(C)(C)C2)CC(C)(C)N1 | -17% | -6% | . | 3% | . | -5% | . | 4%
Cn1nc(N)nc1N1CCN(c2ccc(F)cc2)CC1 | ? | 2% | . | 3% | . | ? | . | -1%
COc1ccc(N2C(=O)CC(Cc3ccc(Br)cc3)C2=O)cc1 (stereo unspecified) | . | -23% | . | -2% | . | . | -20% | -4%
COc1ccc(/C=N/NC(=O)CCn2c3ccccc3c3ccccc32)cc1O | ? | . | -10% | -8% | ? | ? | -9% | -14%
CCCn1c(=S)[nH]c2cc(C(=O)NCC3CCCO3)ccc2c1=O (stereo unspecified) | . | -42% | 6.7% | -4% | -7% | . | 0% | -5%
CCN1C(=NCC(C)C)N[C@@H](c2cccc(F)c2)C(C(=O)OC)=C1C | -5%[14.2 µM] | -10% | . | 4% | . | . | -11%&-1% | -3%&2%
CCN(CC)S(=O)(=O)c1ccc(Cl)c(NC(=O)COC(=O)/C=C/c2cc(OC)c(OC)c(OC)c2)c1 | -33% | -14% | -5.6% | -3% | ? | -9% | 11% | 10%
CC1Cc2nc(SCC(=O)N3CCOCC3)n(C)c(=O)c2S1 (stereo unspecified) | 7% | -18% | . | 2% | . | 8% | 9% | 3%
CSc1ccc(C(=O)C(C)(C)N2CCOCC2)cc1 | -15% | -12% | -7.2% | -14% | 12% | -7% | -6% | -4%
NP(=O)(Oc1ccc(Cl)cc1)Oc1ccc(Cl)cc1 | -9%[46.1 µM] | -5% | . | -2% | . | 6% | . | -5%
Cc1ccc(-c2cc(C(=O)N/N=C/c3ccccc3O)n[nH]2)o1 | ? | 23% | . | 0% | . | ? | -36% | 22%
CN(C)c1ccc(CNC(=O)C(Cc2ccccc2)NS(=O)(=O)c2ccc3c(c2)oc(=O)n3C)cc1 (stereo unspecified) | ? | 3% | 0.2% | . | -9% | 0%[46.1 µM] | . | .
CCCCN(CCCC)CCCN1CC(=O)N2[C@@H](Cc3c([nH]c4ccccc34)C2(C)C)C1=O | ? | 3% | . | 0% | . | -1%[46.1 µM] | 2% | 1%
Cc1ccccc1N1C(=O)C2C3C=CC(CC3)C2C1=O (stereo unspecified) | -4% | 1% | . | -2% | . | 0% | 12% | -1%
Cc1ccc(N2CCN(c3c(CN4CCCC4)c(=O)oc4ccccc34)CC2)c(C)c1 | 4%[46.1 µM] | -18% | -0.2% | . | -29% | ? | . | .
CCOc1cc(CNC(=O)c2ccc3nc(C(C)C)oc3c2)cc(OCC)c1OCC | . | -24% | -5.0% | . | ? | -7%[46.1 µM] | . | .
O=C(O)c1ccc(NS(=O)(=O)c2cc(Cl)ccc2Cl)cc1O | 25% | 1% | -2.8% | 16% | -3% | 13% | 8% | -1%
COc1ccccc1C(=O)NCCC(=O)NCCOc1ccccc1 | . | 9% | . | 7% | . | . | 3% | 7%
CCOC(=O)c1sc(NC(=O)CN2CCN(c3ccc(OC)cc3)CC2)nc1C | 6%[46.1 µM] | -2% | . | 11% | . | 6%[46.1 µM] | -44% | -1%
Cc1[nH]c2ccccc2c1C(O)c1ccncc1 (stereo unspecified) | -21%[46.1 µM] | 11% | . | -3% | . | -6% | 3% | 3%
COc1ccc(CCNc2ncnc3c2nnn3Cc2ccccc2)cc1OC | . | ? | . | -19% | . | . | -4% | -1%
Nc1c(NCCN2CCCCC2)c2ccccc2oc1=O | -22% | 9% | . | 7% | . | -6% | 2% | 1%
OCc1csc(=Nc2ccccc2)n1-c1ccccc1 | 0% | -11% | 2.1% | -12% | -2% | -1% | -5% | -3%
COc1ccc(NC(=O)c2cc(-c3cccs3)on2)cc1 | ? | 7% | . | -9% | . | -26% | -1% | 2%
COc1ccc(NC(=O)c2ccccc2OCc2c(C)noc2C)cc1OC | -5% | -14% | . | 0% | . | 5% | -2% | 0%
CN(CC(=O)NC(=O)NCc1ccccc1)Cc1ccc(Cl)cc1 | 3% | -20% | 0.0% | -3% | -4% | ? | -18% | 11%
CCC(C)NC(=O)[C@H]1N2C(=O)c3c(ccc(OC)c3OC)C2SC1(C)C (stereo partly specified) | 5%[46.1 µM] | 1% | . | 6% | . | -2%[46.1 µM] | -1% | -1%
COc1ccc(C(c2nnnn2C2CCCC2)N2CCC(C(N)=O)CC2)c(OC)c1 (stereo unspecified) | 0%&0% | 13% | 0.8% | 11% | -8% | 6% | -11% | 2%
COc1cc(C)ccc1OCCOc1c(Cl)cc(Cl)cc1Cl | ? | -21% | -1.4% | -8% | -1% | 3% | -8% | -6%
CCCn1c(SCC(=O)N2CCc3ccccc3C2)nc2c1c(=O)n(C)c(=O)n2C | 6%&6% | -6% | -0.3% | 12% | 10% | 2% | -7% | 2%
CCCSC1C(C)=C(C)C(=O)N1Cc1ccccc1 (stereo unspecified) | . | 6% | . | 6% | . | . | -10% | -1%
S=C(Nc1ccccc1)N1CCN(c2ccccc2)CC1 | -6%[46.1 µM] | 2% | . | -16% | . | ? | . | .
O=C(NCCN1CCOCC1)c1cc2sccc2n1Cc1ccc(Cl)cc1 | -25% | -9% | -4.3% | -5% | 5% | 8% | -6% | -1%
COCc1cc(C)nc(SCC(=O)Nc2ccc3c(c2)OCCO3)c1C#N | . | -16% | . | 1% | . | . | 2% | 0%

Looked up one by one from the list above (five):
SMILES | MARV entry inh | StopGo reporter | Cruzain Triton | RE007 growth inh | Cruzain noTriton | Lassa entry inh | NS1 function inh | SARS PLP yeast
Cc1ccc(N2CCN(c3c(CN4CCCC4)c(=O)oc4ccccc34)CC2)c(C)c1 | 4%[46.1 µM] | -18% | -0.2% | . | -29% | ? | . | .
O=C(NCCN1CCOCC1)c1cc2sccc2n1Cc1ccc(Cl)cc1 | -25% | -9% | -4.3% | -5% | 5% | 8% | -6% | -1%
Cc1ccccc1N1C(=O)C2C3C=CC(CC3)C2C1=O (stereo unspecified) | -4% | 1% | . | -2% | . | 0% | 12% | -1%
CC(Oc1ccc(Cl)cc1Cl)C(=O)Nc1ccc(O)cc1 (stereo unspecified) | -6%[46.1 µM] | -14% | . | -2% | . | 0% | . | -2%
NP(=O)(Oc1ccc(Cl)cc1)Oc1ccc(Cl)cc1 | -9%[46.1 µM] | -5% | . | -2% | . | 6% | . | -5%

Carrying on.
SMILES | MARV entry inh | StopGo reporter | Cruzain Triton | RE007 growth inh | Cruzain noTriton | Lassa entry inh | NS1 function inh | SARS PLP yeast
COc1ccc(NC(=O)Cn2cc(S(=O)(=O)c3ccc(C)cc3)c(=O)c3ccccc32)cc1OC | -5%[46.1 µM] | 4% | -5.6% | . | ? | 1%[46.1 µM] | . | .
O=C(NCCSCc1ccccc1)c1ccc(C2SCC(=O)N2Cc2ccccc2)cc1 (stereo unspecified) | ? | . | -2.6% | -2% | -2% | ? | 23% | 2%
CC(=O)Nc1ccccc1C(=O)C(=O)Nc1cccc(F)c1 | 25% | 25% | . | -10% | . | 2% | . | .
Cc1cccc(Cc2nnc(CCC(=O)NCc3cnc4ccccn34)o2)c1 | . | 0% | . | -2% | . | . | 9% | 0%
Cc1c(C(=O)N2C[C@@H](C)O[C@@H](C)C2)oc2c(F)cccc12 | . | 59%[activator] | . | -24% | . | . | -17% | 1%
O=C(C1c2ccccc2C(=O)N2CCc3ccccc3C12)N1CCC2(CC1)OCCO2 (stereo unspecified) | 16% | 6% | -2.6% | -3% | -4% | -1% | 2% | -1%
COc1ccc(CNC(=O)CCSc2nc(-c3ccc4c(c3)OCO4)cc(C(F)(F)F)n2)cc1 | ? | -17% | -21% | 5% | 7% | ? | 9% | 29%
O=[N+]([O-])c1ccccc1S(=O)(=O)N1CCCCC1 | 7% | -2% | -0.8% | 15% | -4% | 11% | 12% | 20%
Cc1ccc(SCC(=O)Nc2cccc(C(=O)NC(C)(C)C)c2)cc1 | 12% | -9% | 0.3% | 3% | 1% | ? | 7% | -8%
COc1cc(SC)ccc1C(=O)Nc1c(Cl)cncc1Cl | -29%[46.1 µM] | -10% | . | 9% | . | -19% | -4% | -6%
Cn1nnnc1SCC(=O)N1CCN(c2ccccc2)CC1 | 22% | 10% | -1.4% | -16% | -24% | 2% | 1% | 0%
O=C(CCC(=O)Nc1ccc(F)cc1)N/N=C/c1cc([N+](=O)[O-])ccc1O | ? | -16% | . | -20% | . | ? | . | 1%
O=C(CNC(=O)c1ccccc1)OCN1C(=O)c2ccccc2C1=O | ? | -4% | . | 10% | . | 1% | . | .

Outcome played no part in choosing rows; about 4.7% have a hit in one of these screens.
